YopH inh – inhibitors of Yersinia enterocolitica YopH tyrosine phosphatase; AID 898; inhibition, %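 (about 10 µM by stock and volumes)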; fluorescence Ex485/Em525; 140,000 compounds, 0.16% hits;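 active means inhibition of 50% or more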;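 further: controls were vehicle for no effect and minimum signal wells for full effect; inactives centre near -20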
Mtb betalactam – beta-lactam sensitization of Mtb H37Rv; inhibition, % at 25 µM; 330,000 compounds, 0.27% hits; M. tuberculosis H37Rv growth with meropenem, percent inhibition; hits of this screen are not shown here;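 active means about 74% or more and at least 40 points above the plate without the antibiotic, then above 30% in a dose series; inconclusive means first-round hits that could not be retested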;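 further: growth measured after seven days incubation then overnight dye step; 0% = bacteria only wells and 100% = bacteria with antibiotic; twin plates without the antibiotic show which effects depend on it; some results filed as inactive read as strong as hits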
Arbovirus anti – arbovirus infection inhibition | 200,000 compounds, 0.37% hits | inhibition, % at 10 µM | arbovirus infection cell-based antiviral screen;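 active means inhibition from about 30%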;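 further: bluetongue infection of BSR cells; cell survival read as ATP light after 72 h; 0% = infected wells without compound and 100% = uninfected wells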
RecA intein inh – blocks M. tuberculosis RecA intein splicing; P9WHJ3; cell-free RecA intein splicing, fluorescence; inhibition, %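 (about 9 µM by stock and volumes)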; 290,000 compounds, 0.75% hits; in the data active means inhibition above about 30%; inconclusive means no clear call, values can overlap the other calls;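 further: 0% = vehicle wells and 100% = reference inhibitor control wells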
Target sequence (P9WHJ3 whole entry, looked up): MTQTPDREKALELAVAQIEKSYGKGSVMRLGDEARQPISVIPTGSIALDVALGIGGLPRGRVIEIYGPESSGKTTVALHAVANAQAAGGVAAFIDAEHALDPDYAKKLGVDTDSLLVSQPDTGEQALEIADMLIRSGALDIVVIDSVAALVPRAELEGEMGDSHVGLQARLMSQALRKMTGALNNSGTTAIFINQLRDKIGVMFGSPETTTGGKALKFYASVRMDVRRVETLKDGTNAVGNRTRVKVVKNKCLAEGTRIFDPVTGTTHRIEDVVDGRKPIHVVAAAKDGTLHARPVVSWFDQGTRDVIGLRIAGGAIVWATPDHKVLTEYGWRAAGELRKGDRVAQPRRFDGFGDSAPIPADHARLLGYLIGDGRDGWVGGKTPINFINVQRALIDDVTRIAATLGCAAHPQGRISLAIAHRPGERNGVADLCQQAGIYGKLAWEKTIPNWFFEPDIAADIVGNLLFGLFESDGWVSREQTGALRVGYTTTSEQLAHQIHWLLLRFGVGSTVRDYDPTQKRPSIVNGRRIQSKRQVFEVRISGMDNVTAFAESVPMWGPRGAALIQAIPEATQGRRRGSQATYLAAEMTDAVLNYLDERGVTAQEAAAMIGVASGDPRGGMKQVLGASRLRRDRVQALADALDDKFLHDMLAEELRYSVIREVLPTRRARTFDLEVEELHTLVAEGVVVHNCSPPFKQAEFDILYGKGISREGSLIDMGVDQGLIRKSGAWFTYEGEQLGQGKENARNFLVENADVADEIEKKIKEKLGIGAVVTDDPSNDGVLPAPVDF
Mtb growth – M. tuberculosis H37Rv growth inhibitors, H37Rv strain (AID 1626) | 220,000 compounds, 0.95% hits | inhibition, % at 10 µM, or IC50 in µM where a hit was titrated | M. tuberculosis H37Rv growth inhibition; higher % means a stronger effect;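 active means confirmed in a dose series; inconclusive means inhibition above 80% but not taken into the dose series; inactive means below 80% or under 30% at every dose of the series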;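 further: bacteria incubated seven days before Alamar blue readout; 0% = bacteria only wells and 100% = bacteria with antibiotic wells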
Arbovirus anti repeat – second read-out of Arbovirus anti, no call of its own (marks repeat the call); inhibition, %; measured here: 10K subset replicate screen; many hits read low in the repeat;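 first of two repeat runs on a subset; 0% = infected and 100% = uninfected wells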
* = called active by the depositor; ? = inconclusive; · = not tested or not shown; & = joins results of further samples. An excerpt; the hit share may differ from the screen's.

SMILES | YopH inh | Mtb betalactam | Arbovirus anti | RecA intein inh | Mtb growth | others
COc1ccccc1N(CC(=O)Nc1ccc(Cc2ccncc2)cc1)S(=O)(=O)c1ccccc1 | · | 5 | · | -0.5 | ·
CN(C)S(=O)(=O)c1ccc(C(=O)OCC(=O)c2ccc3c(c2)NC(=O)CO3)cc1 | · | 3 | · | -0.6 | -4%
COc1cc(/C=N/NC(=O)c2cc3ccccc3cc2O)ccc1OCCN1CCCCC1 | -34 | 9 | -7 | -76 | 17%
CCOC(=O)c1sc(=S)n(-c2ccc(C)cc2)c1SC | 5 | 4 | 3 | 3.1 | 2%
CN1CCN(CCOC2c3ccccc3CSc3ccc(Cl)cc32)CC1 (stereo unspecified) | -13 | 6 | -36 | 2.1 | 6%
O=C(CCC1CCCCC1=O)c1ccccc1 (stereo unspecified) | -60 | -2 | 3 | -1.3 | ·
COC(=O)CCN(c1ccccc1)S(=O)(=O)c1ccc(OC)cc1 | -36 | 1 | -6 | 2.0 | 2%
COc1ccccc1NC(=O)CN1CCN(S(=O)(=O)c2ccc(Br)cc2)CC1 | -12 | · | 2 | -2.9 | ·
CN(CC(=O)Nc1cccc(F)c1)C(=O)c1ccc(N2CCOCC2)c([N+](=O)[O-])c1 | · | 2 | · | 1.6 | ·
O=C(c1cc(-c2ccc(O)cc2)on1)N1CCCCCC1 | · | 7 | · | -3.7 | ·
O=C(COC(=O)/C=C/c1ccc(OC(F)F)cc1)Nc1cccc(S(=O)(=O)N2CCCC2)c1 | · | 1 | · | -1.3 | ·
COc1ccc2sc(NC(=O)CC(C)C)nc2c1 | -54 | 8 | -6 | -1.5 | 2%
CCOc1ccccc1NC(=O)C(NCC1CCCCC1)c1ccccc1 (stereo unspecified) | · | 4 | -3 | 8.1 | 12%
O=C(O)c1nccnc1C(=O)Nc1ccccc1N1CCOCC1 | · | -3 | · | 2.3 | 3%
CCOC(=O)N1CCN(S(=O)(=O)c2ccc(F)c(C(=O)Nc3cccc(Cl)c3C)c2)CC1 | -15 | -4 | 8 | 3.8 | 1%
O=C(CN1C(=O)c2cccc3cccc(c23)C1=O)NCCCO | · | 3 | · | -0.9 | ·
CC(Oc1ccccc1)C(=O)N1CCN=C1SCc1ccccc1 (stereo unspecified) | · | -4 | 3 | 5.2 | 2%
CS(=O)(=O)N(CC(=O)NCc1ccc2c(c1)OCO2)Cc1ccc(Cl)cc1 | -3 | -8 | 4 | 5.6 | 8%
CCCCNC(=O)c1cc([N+](=O)[O-])[nH]n1 | -31 | ? | 1 | -12 | 9%
CCSc1nnc(C)n1-c1ccc(C(=O)O)cc1 | -33 | 4 | 6 | 4.4 | 2%
O=C(CN1CCCCC1)NC1CCc2cc3c(cc21)CCC3 (stereo unspecified) | · | -19 | · | 3.5 | ·
O=C(NC1CCCCC1)C(=S)N1CCOCC1 | · | -2 | 9 | 0.5 | 7%
CC1CCCCC1N1CN=C(Nc2nc3ccccc3s2)NC1 (stereo unspecified) | -24 | -6 | 4 | -1.5 | 0%
C/C=C(/C)C(=O)O[C@@H]1[C@H](OC(=O)C=C(C)C)c2c(ccc3ccc(=O)oc23)OC1(C)C | -25 | -7 | 1 | 0.9 | -12%
OCc1nc2ccccc2n1CCCCOc1ccccc1 | · | -8 | · | 2.1 | ·
O=C(CSc1nccc(-c2cccs2)n1)Nc1ccc(Cl)cc1 | · | -10 | · | 2.2 | 8%
Cn1nc(C(C)(C)C)c([N+](=O)[O-])c1C(=O)N1CCOCC1 | · | -1 | · | -3.5 | ·
Cc1cc(NC(=O)C2CC(=O)N(c3cccc(Cl)c3)C2)no1 (stereo unspecified) | · | -1 | · | -0.1 | ·
Cc1ccc(S(=O)(=O)N(C)C)cc1NC(=O)COC(=O)CCC1CCCC1 | · | 0 | · | 1.4 | ·
Cc1ccc(C)c(NC(=O)COc2cccc3c2CCN(Cc2ccccc2C)C3=O)c1 | -37 | 6 | -6 | -1.3 | -3%
S=C1CCSc2ccc(Cl)cc2N1 | -12 | · | 0 | 0.2 | ·
COc1ccc(CNC(=O)CSc2nnc(C(F)(F)F)n2C)cc1 | · | 5 | -2 | 2.4 | -6%
COc1ccc(N(C)S(=O)(=O)c2cccc(C(=O)NC3CCCCCC3)c2)cc1 | · | -12 | 1 | -1.1 | 6%
CCc1ccccc1NS(=O)(=O)c1ccc(SC)cc1 | -10 | 20 | -7 | 0.1 | -4%
Cc1c(O)cc2n(c1=O)-c1ccc(Cl)cc1C2(C)C | -10 | -8 | -4 | 2.4 | -4%
CCn1c(N)c(C(=O)NCCCOC)sc1=S | -4 | -12 | 1 | -1.8 | ·
CCCc1[nH]nc2c1C1(C(=O)N(CC)c3ccccc31)C(C#N)=C(N)O2 (stereo unspecified) | -34 | 3 | -2 | 0.8 | 0%
C=CCn1c(C)cc(C(=O)CSc2ccc(NC(C)=O)cc2)c1C | -33 | -13 | 5 | 0.5 | -7%
NC(=O)c1ccc(-n2nnnc2SCC(=O)Nc2ccc(N3CCOCC3)c(Cl)c2)cc1 | 7 | 7 | 3 | -0.9 | 2%
COc1ccc(C2C3=C(CC(C)(C)CC3=O)Oc3ncn(Cc4ccco4)c(=N)c32)cc1 (stereo unspecified) | -35 | -9 | -17 | 2.8 | 4%
COc1ccc(-c2ccc(-c3noc(-c4ccco4)n3)c(OC)n2)cc1 | -29 | 50 | -2 | -1.9 | 11%
CC(=O)Nc1ccc(S(=O)(=O)N=S(C)C)cc1 | -13 | -6 | 2 | -0.6 | 11%&1%
O=c1[nH]c(SCc2ccccc2)nnc1-c1ccccc1 | -13 | 1 | 33* | -7.1 | -1%
O=C(COc1ccc(S(=O)(=O)N2CCCC2)cc1)NCCC1=CCCCC1 | -15 | -5 | -1 | 1.1 | 8%
CCC1(CC)C(=O)C2=C3C1[C@H](C(=O)OC)C=C(C(=O)OC)C[C@H]3[C@H]1C(=O)NC(=O)[C@H]1[C@H]2C (stereo partly specified) | · | -5 | · | -2.8 | 4%
O=C(C[n+]1ccccc1)N/N=C/c1ccco1 | · | -1 | -1 | -2.2 | -4%
S=C(Nc1ccc2c(c1)OCCO2)Nc1ccc2c(c1)OCO2 | · | 55 | -9 | 6.8 | -5%
Cc1cc(C)c(S(=O)(=O)N2CCN(C(=O)N(C)C)CC2)c(C)c1 | · | -3 | -3 | -4.7 | 0%
CNC(=S)N1C2CCC1CC(NC(=O)NC13CC4CC(CC(C4)C1)C3)C2 (stereo unspecified) | -41 | -6 | -4 | -5.6 | -5%
COc1cc(OC)cc(C(=O)Nc2ccccc2C(=O)NCc2cccnc2)c1 | · | 6 | · | -0.9 | ·
CCC(C)c1ccccc1OCCn1ccnc1 (stereo unspecified) | 10 | ? | 1 | 0.5 | 13%
COc1ccc(N2CCN(C(=O)c3cc(C)on3)CC2)cc1 | · | 7 | · | -1.7 | ·
CC(C)NS(=O)(=O)c1ccc2c(c1)NCC2 | -21 | -6 | 3 | -2.8 | -8%
O=C(N/N=C/c1ccc(OCc2ccc(F)cc2)cc1)c1ccccc1 | · | 2 | 5 | 1.9 | -1%
CC1(C)CNC(=O)CC(C)(C)N1 | · | -4 | 1 | · | -5%
COc1ccccc1/C=C\C=N\n1c(-c2ccc(Cl)cc2)n[nH]c1=S | 23 | 13 | -4 | 1.8 | 10%
O=C(CSc1ccccc1)N1CCCC(Nc2ccccc2)C1 (stereo unspecified) | · | -1 | · | -0.8 | ·
Cc1cnc(C(=O)OC(C(=O)Nc2cc(C(F)(F)F)ccc2Cl)c2ccccc2)cn1 (stereo unspecified) | · | -2 | · | -1.5 | ·
Cc1cc(C)cc(C(=O)NCCn2cc(SCC(=O)N3CCOCC3)c3ccccc32)c1 | -44 | -1 | 6 | 2.2 | -1%
[O-][n+]1c2c(nn1-c1ccccc1Cl)-c1nonc1CC2 | -19 | -1 | 5 | -2.2 | -2%

Continued:
SMILES | YopH inh | Mtb betalactam | Arbovirus anti | RecA intein inh | Mtb growth | others
O=C(O)c1cc(S(=O)(=O)N2CCN(C(=O)c3ccco3)CC2)c(Cl)cc1Cl | · | -1 | · | -0.4 | ·
CNc1nc(OCC(F)(F)F)nc(OCC(F)(F)F)n1 | · | -2 | · | 2.3 | ·
COC(=O)C1=C(c2cccc(OC)c2OC)C[C@@H]2CC[C@H]1N2C(=O)NCC1CC1 | · | -5 | · | -0.7 | -8%
COc1cccc(C2CC(c3ccc(C)cc3)n3ncnc3N2)c1 (stereo unspecified) | 9 | ? | 6 | 1.0 | -5%
O=C(c1ccco1)N1N=C(c2ccc(Br)cc2)CC1(O)C(F)(F)F (stereo unspecified) | · | 3 | 6 | 1.4 | 1%
CCOC(=O)C1CCN(C(=O)Nc2ccc3nccnc3c2)CC1 | 3 | -10 | -2 | -5.9 | -8%
O=C(CCCC(=O)N(CC(=O)NC1CCCC1)Cc1ccc2c(c1)OCO2)Nc1ccccn1 | -39 | -3 | 4 | -2.5 | 0%
Cc1ccccc1Nc1nc(N)nc(CSc2nnc(-c3ccccc3)n2C)n1 | -5 | -1 | 5 | 1.5 | ·
O=C(NC1CCCCC1)c1ccccc1C(F)(F)F | · | -10 | 0 | -7.9 | -5%
CCOC(=O)c1c(C2CC2)csc1NC(=O)COC(=O)c1ccc[n+]([O-])c1 | 3 | 6 | -10 | -0.6 | 7%
Cn1cccc1C(=O)NC(=O)COC(=O)CNC(=O)CNC(=O)c1ccc(Cl)cc1Cl | · | -4 | 1 | 3.9 | 8%
COc1cc(/C=C2\SC(=O)N(c3ccc(O)cc3)C2=O)cc(OC)c1OC | · | 0 | · | -0.9 | 2%
CC(=O)c1ccc(NC(=O)C(C)OC(=O)C2CCN(c3ccc(C(F)(F)F)cn3)CC2)cc1 (stereo unspecified) | · | -9 | · | 2.5 | ·
CCC1CCCCN1CCCNC(=O)c1cn(C)c2ccc(S(=O)(=O)N(C)C3CCCCC3)cc2c1=O (stereo unspecified) | · | 5 | · | -0.6 | ·
CCN1CCN(c2nnc(-c3ccccc3)c3ccccc23)CC1 | · | -2 | · | -0.6 | ·
CCOc1ccc(C(=O)COC(=O)Cc2n[nH]c(=O)c3ccccc23)cc1 | · | 4 | · | -1.4 | ·
COc1ccccc1CC(=O)NNC(=O)c1ccc(C(C)(C)C)cc1 | · | 0 | · | -1.5 | ·
COc1ccccc1CNC(=O)Cn1c(=O)oc2cc(S(=O)(=O)N3CCCC3)ccc21 | · | -2 | · | -0.4 | ·
O=C(CSc1ccccc1)N1CCCC(N2CCN(c3ccc(F)cc3)CC2)C1 (stereo unspecified) | · | 7 | · | -1.6 | ·
O=C(NCCc1ccc2c(c1)OCCO2)c1ccccn1 | · | 0 | · | 3.0 | ·
CC12CN3CC(C)(CN(C1)C3c1ccc(Br)cc1)C2=O (stereo unspecified) | -48 | -14 | 12 | 1.4 | -4% | Arbovirus anti repeat=3
Cc1ccc(C(=O)N(CCC2=CCCCC2)c2c(N)n(Cc3ccccc3)c(=O)[nH]c2=O)o1 | · | 2 | · | -4.1 | ·
O=C(NCC1CCCO1)C1CC(c2ccc(Cl)c(Cl)c2)=NO1 (stereo unspecified) | -11 | -1 | 18 | 0.7 | -12%
COc1ccc(NC(=O)NCCCN2CCC(Cc3ccccc3)CC2)cc1 | · | -5 | · | 0.9 | -5%

Structures above containing bromine (3):
SMILES | YopH inh | Mtb betalactam | Arbovirus anti | RecA intein inh | Mtb growth | others
COc1ccccc1NC(=O)CN1CCN(S(=O)(=O)c2ccc(Br)cc2)CC1 | -12 | · | 2 | -2.9 | ·
O=C(c1ccco1)N1N=C(c2ccc(Br)cc2)CC1(O)C(F)(F)F (stereo unspecified) | · | 3 | 6 | 1.4 | 1%
CC12CN3CC(C)(CN(C1)C3c1ccc(Br)cc1)C2=O (stereo unspecified) | -48 | -14 | 12 | 1.4 | -4% | Arbovirus anti repeat=3

Next section.
SMILES | YopH inh | Mtb betalactam | Arbovirus anti | RecA intein inh | Mtb growth | others
CN1C(=O)/C(=C\c2ccco2)N=C1c1ccc(Cl)cc1Cl | · | -2 | · | -1.2 | 2%
COc1ccc(Cl)cc1NC(=S)N1CCN(c2ccccn2)CC1 | -34 | 0 | -8 | -4.1 | 3%
O=C(N/N=C/c1cccc2nccnc12)c1ccncc1 | · | 99 | · | -1.3 | ?
CC1(N2CCCCC2)C(=O)c2ccccc2C1=O | -14 | 6 | -8 | -4.0 | 0%

4 structures already listed, sorted by molar mass, low to high.
SMILES | YopH inh | Mtb betalactam | Arbovirus anti | RecA intein inh | Mtb growth | others
O=C(CCC1CCCCC1=O)c1ccccc1 (stereo unspecified) | -60 | -2 | 3 | -1.3 | ·
CCSc1nnc(C)n1-c1ccc(C(=O)O)cc1 | -33 | 4 | 6 | 4.4 | 2%
O=C(CN1C(=O)c2cccc3cccc(c23)C1=O)NCCCO | · | 3 | · | -0.9 | ·
COc1ccccc1CNC(=O)Cn1c(=O)oc2cc(S(=O)(=O)N3CCCC3)ccc21 | · | -2 | · | -0.4 | ·

Assay outcomes from PubChem.
